# High-throughput results from PubChem.
# ALR H2O2 inh: inhibitors of human ALR sulfhydryl oxidase, primary screen, biochemical, H2O2 detection, HRP-luminol luminescence, single point; purified ALR, DTT oxidation; 290,000 tested, 3.8% active; inhibition, % (no concentration beside the values);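 active means mean and each replicate at 75% or more; inconclusive means only one of the two met; inactive means neither met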;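 further: stock transfer was 7.5 nL into about 7.5 µL; 0% = neutral wells and 100% = wells with inactivated enzyme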
# Target sequence (P55789 whole entry, looked up): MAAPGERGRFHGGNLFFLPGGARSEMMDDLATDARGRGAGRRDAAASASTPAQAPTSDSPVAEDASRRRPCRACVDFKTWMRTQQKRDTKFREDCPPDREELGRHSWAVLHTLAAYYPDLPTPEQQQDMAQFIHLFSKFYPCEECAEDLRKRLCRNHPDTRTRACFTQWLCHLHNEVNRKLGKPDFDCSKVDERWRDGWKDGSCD
# FGF22 binding: binders of human FGF22 protein, primary screen, FGF22 synaptogenesis inhibitor project, biophysical, thermal shift, single point; Fibroblast growth factor 22 (Homo sapiens), Q9HCT0; recombinant FGF22 thermal shift, SYPRO orange fluorescence; percent of sucrose octasulfate shift, DMSO zero; calls only at 9.99 µM; 340,000 tested, 1.5% active;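 active means melting point raised past a set limit in the mean and every replicate; inconclusive means no clear call; three in four hits are not shown here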
# Target sequence (Q9HCT0 whole entry, looked up): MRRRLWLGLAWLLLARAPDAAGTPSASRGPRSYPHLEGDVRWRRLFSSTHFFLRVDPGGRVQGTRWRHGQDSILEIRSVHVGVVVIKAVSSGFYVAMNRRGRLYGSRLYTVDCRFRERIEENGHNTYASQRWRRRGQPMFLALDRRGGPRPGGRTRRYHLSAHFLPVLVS
# Vif A3G: inhibitors of Vif binding to APOBEC3G peptide, primary screen, biochemical, TR-FRET, GST-Vif 1-94, biotin-A3G peptide, dose response retest (AID 1117319); Virion infectivity factor (Human immunodeficiency virus type 1 group M subtype B (isolate …; TR-FRET GST-Vif / biotin-A3G peptide binding; higher % means a stronger effect; test concentration not given here; strong numbers were not always called active; one-dose inhibition, %; IC50 in µM for titrated hits; 260,000 tested, 0.57% active;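 active means above the screen mean plus three standard deviations and confirmed in dose response; inconclusive means results disagree or hit not tested in dose response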;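 further: Vif residues 1-94 fused to GST binding biotinylated APOBEC3G peptide 110-148; 0% = full assay without inhibitor and 100% = GST in place of GST-Vif; retest series ran down from 100 µM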
# Ecoli rRNA inh: reduced GFP signal of wild-type E. coli, primary screen, bacterial rRNA inhibitor project, GFP/RFP fluorescence, OD600, single point | E. coli WT GFP vs humanized-ribosome RFP mutants, 24 h; stronger effect = lower value; DMSO median 0, no signal -100 | GFP signal change (wild-type ribosome), % (test concentration not listed) | 350,000 tested, 1.6% active | AID 720706, 2013;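 active means significant combined selectivity score with lowered wild-type GFP, culture density cut under 30%, mutant RFP and density less affected; inactive means any of these conditions unmet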; further: one replicate is shown; some compounds called inactive have numbers as strong as hits
# Ecoli growth: E. coli growth inhibition, primary screen, OD600; Escherichia coli growth, 23 h; stronger effect = lower value; OD600 absorbance (test concentration not listed); 330,000 tested, 0.21% active; AID 1053175, 2014;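 active means OD600 absorbance below the run mean of sample wells minus 3.6 SD, in any replicate, cut at about 0.56 in these data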;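 further: stock transfer was 300 nL into about 60 µL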
# MLL AF4-AF9 inh: inhibitors of AF4 peptide binding to AF9, primary screen, biochemical, AlphaScreen, biotin-AF4 peptide, FLAG-AF9, single point; inhibition, % at 10 µM; 350,000 tested, 0.47% active;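 active means every replicate reaching a set inhibition limit, whatever the replicate mean, cut at about 25% in these data; inconclusive means mean inhibition reaches that limit but some replicates miss it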;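 further: 0% = plate neutral control median and 100% = total signal loss; the record names both 10 and 1 µM as test concentration; the first replicate is given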
# HNF4A DNA FP: change in binding of human HNF4A to DNA, primary screen, biochemical, fluorescence polarization, FITC-DNA | Hepatocyte nuclear factor 4-alpha (Homo sapiens), P41235 | 1 h | activity change, % at 10 µM | 360,000 tested, 0.3% active | AID 1224865, 2016; in the data active means activity change above about 30%, passing the limit was not always enough;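 further: controls were the assay level and a saturating level of protein; the project sought stronger binding though the title names inhibitors; some compounds called inactive have numbers as strong as hits; positive values seem to mean higher polarization but the record does not say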
# Target sequence (P41235 whole entry, looked up): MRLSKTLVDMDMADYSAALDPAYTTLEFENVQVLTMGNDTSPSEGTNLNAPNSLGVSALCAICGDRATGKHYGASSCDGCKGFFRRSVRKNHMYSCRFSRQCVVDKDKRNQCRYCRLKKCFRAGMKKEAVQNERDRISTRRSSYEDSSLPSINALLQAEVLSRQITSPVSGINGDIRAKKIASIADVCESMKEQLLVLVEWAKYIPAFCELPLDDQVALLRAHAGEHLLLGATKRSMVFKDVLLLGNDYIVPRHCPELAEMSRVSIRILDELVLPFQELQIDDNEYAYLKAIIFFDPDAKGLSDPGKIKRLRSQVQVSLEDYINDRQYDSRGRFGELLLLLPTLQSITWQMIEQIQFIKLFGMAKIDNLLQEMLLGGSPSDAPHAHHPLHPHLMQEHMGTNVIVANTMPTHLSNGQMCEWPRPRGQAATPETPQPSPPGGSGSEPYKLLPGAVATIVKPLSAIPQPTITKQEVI
# Ecoli rRNA inh OD600: further read-out of Ecoli rRNA inh, marked with its call; OD600 change, %; measured here: OD600 growth;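 optical density of the mix in the first replicate; 0 = DMSO median and -100 = no signal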
# Ecoli rRNA inh RFP: also measured in Ecoli rRNA inh; calls as there; RFP signal change, %; measured here: RFP humanized mutant strains;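 first replicate; 0 = DMSO median and -100 = no signal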
# * marks the source's active call; other numbers are inactive results; i = inactive; ? = inconclusive; nt = no result given. Not all compounds are listed (hit frequency here may not be typical).
molecule	ALR H2O2 inh	FGF22 binding	Vif A3G	Ecoli rRNA inh	Ecoli rRNA inh OD600	Ecoli rRNA inh RFP	Ecoli growth	MLL AF4-AF9 inh	HNF4A DNA FP
C[C@@H]1CN([C@@H](C)CO)C(=O)Cc2cc(NS(=O)(=O)c3cn(C)cn3)ccc2O[C@@H]1CN(C)S(=O)(=O)c1ccc(Cl)cc1	nt	i	nt	-3	-8	-0.6	nt	-0.4	nt
COC(=O)C1=C(C(=O)c2ccccc2)C(c2ccccc2)n2nnnc2N1 (stereo not drawn)	4	nt	6%	nt	nt	nt	0.71	nt	-0.6
COc1ccc(C(=O)Nc2nc(CC(=O)NCc3ccc(F)cc3)cs2)cc1	nt	i	-43%	5	4	3.5	0.73	-0.8	1.2
CC(=O)c1ccc(NCC2COc3ccccc3O2)c([N+](=O)[O-])c1 (stereo not drawn)	1	i	-5%	3	-5	0.6	0.76	6.0	4.6
CCC(=O)N[C@H]1C=C[C@H](CC(=O)NCc2ccccc2F)O[C@@H]1CO	nt	i	nt	1	8	-0.2	nt	0.9	nt
COc1ccccc1OCCOCCOc1ccc(C)cc1Br	0	i	-2%	nt	nt	nt	0.71	-1.4	1.5
CCc1nc(N2[C@@H](C#N)[C@H](c3ccccc3-c3ccccc3F)[C@@H]2CO)sc1C	nt	i	nt	-2	3	-6.6	nt	-2.2	nt
COc1ccc(S(=O)(=O)N2CCOC2CNC(=O)C(=O)NCCN2CCOCC2)cc1 (stereo not drawn)	3	i	nt	9	4	0.7	0.7	0.5	-0.7
COc1ccccc1C1CC(c2ccc(NS(C)(=O)=O)cc2)=NN1S(=O)(=O)c1ccccc1 (stereo not drawn)	-4	i	-8%	-32	-30	8.8	0.71	-0.5	0.1
C[C@H]1CN([C@@H](C)CO)S(=O)(=O)c2ccc(C#CCN(C)C)cc2O[C@@H]1CN(C)S(=O)(=O)c1cccc(F)c1	nt	i	nt	-8	-2	-0.7	nt	7.9	nt
Cc1cc(NC(=O)c2ccc([N+](=O)[O-])cc2)n(CCC#N)n1	nt	i	nt	7	10	-0.8	0.64	1.0	-1.2
COc1ccc(S(=O)(=O)Nc2cc(C)ccn2)cc1OC	-4	i	15%	10	4	-3.3	0.63	4.1	0.4
CC(C)c1ccc(/C=C/C(=O)NC(=S)Nc2ccc(CN3CCOCC3)cc2)cc1	48	i	8%	-8	-3	-0.9	nt	8.0	2.4
CS(=O)(=O)N1[C@H](C#N)[C@H](c2ccccc2-c2ccccc2)[C@H]1CO	nt	i	nt	-1	3	-5.2	nt	-1.4	nt
COCCNC(=O)COC(=O)c1cc(-c2ccc(OC)cc2)nc2ccccc12	0	i	nt	-16	-3	-1.3	0.67	-1.5	1.2
COC(=O)c1cccc(NC(=O)CN2CCC(NC(=O)c3cc(OC)c(OC)c(OC)c3)CC2)c1	57	nt	5%	nt	nt	nt	0.71	nt	-0.9
CCN(CC)C(=O)CSc1nc2nc(C)cc(C)c2c(=O)[nH]1	-7	nt	10%	nt	nt	nt	0.67	nt	2.7
Cc1cccc(NC(=O)c2nc[nH]c2C(=O)NCc2ccccc2)c1	3	i	nt	1	21	19	0.72	0.5	-1.9
O=C(NCc1ccco1)c1ccc2nccnc2c1	-1	i	nt	6	15	2.3	0.69	0.3	0.6
CSc1ncccc1C(=O)Nc1cc(C)ccn1	-1	i	nt	14	13	0.4	0.68	-0.3	2.2
C[C@@H]1CN([C@H](C)CO)C(=O)c2cccc(NC(=O)Nc3cccc4ccccc34)c2O[C@@H]1CN(C)C(=O)Nc1ccccc1	nt	i	nt	-2	-2	0.0	nt	-2.2	nt
COc1cc(CNCCCN2CCOCC2)c(Br)cc1OC(C)C	-13	i	nt	11	6	5.8	0.65	1.1	-2.0
O=C(CN1C(=O)CSc2ccccc21)NCCC1=CCCCC1	-2	i	-3%	4	-1	3.7	0.65	5.4	-3.3
CN(C)c1ccc(-c2ccccc2)nn1	-3	nt	-3%	nt	nt	nt	0.72	nt	-2.9
COc1nccnc1NS(=O)(=O)c1ccc(N=Cc2c(C)[nH]n(-c3ccccc3)c2=O)cc1	48	i	?	0	5	-12	0.61	6.8	1.0
CCCNC(=O)C(=O)NCCC1=CCCCC1	-22	nt	20%	nt	nt	nt	0.74	nt	-1.9
CCC(=O)Oc1cccc(C(=O)Nc2cccc(NC(=O)c3ccco3)c2)c1	1	i	nt	-9	-26	-3.2	0.66	3.8	2.7
Cc1cccc(C(=O)NC(C)C2CC3CCC2C3)c1 (stereo not drawn)	1	i	nt	-18	-55	-1.2	0.64	-0.5	-2.6
CC(=O)NNS(=O)(=O)c1ccccc1[N+](=O)[O-]	-10	nt	nt	nt	nt	nt	0.71	nt	-3.2
O=C(c1ccco1)N1CCN(CC(O)Cn2c3ccccc3c3ccccc32)CC1 (stereo not drawn)	-5	nt	2%	nt	nt	nt	0.66	nt	4.5
CO[C@H]1CN(C)C(=O)c2cc(NC(=O)C3CCCCC3)ccc2OC[C@@H](C)N(C)C[C@@H]1C	nt	i	nt	1	8	-0.8	nt	-1.3	nt
COc1ccc(CC(=O)NNC(=O)CN(C)S(=O)(=O)c2ccc(Cl)cc2)cc1OC	4	i	nt	13	2	1.3	0.68	-0.8	2.5
CC(NC(=O)/C(=C\c1cccc([N+](=O)[O-])c1)NC(=O)c1ccco1)C(=O)O (stereo not drawn)	1	i	1%	5	2	-1.2	0.69	0.0	5.1
C[C@@H]1CN([C@@H](C)CO)C(=O)c2cc(NC(=O)Cn3cnnn3)ccc2O[C@@H]1CN(C)C(=O)Nc1ccc(F)cc1	nt	i	nt	1	3	1.2	nt	1.2	nt
Cc1cc(C)c2[nH]c(C(=O)Nc3ccc4c(c3)OCO4)cc2c1	-3	i	9%	-19	-30	-1.4	0.7	3.7	3.5
COc1cc(NC(=O)CCc2nnc3ccc(N4CCN(c5cccc(OC)c5)CC4)nn23)cc(OC)c1	-1	i	nt	1	9	1.5	0.71	-0.7	-2.6
Cc1ccc2cc(C#N)c(N3CCCN(S(=O)(=O)c4ccc(F)cc4)CC3)nc2c1	4	i	-4%	-6	-6	7.5	0.74	1.4	11
COc1cc(NC(=S)NCCCN2CCOCC2)cc(OC)c1OC	nt	i	0%	6	9	0.1	0.72	-5.5	-3.9
OC[C@H]1O[C@@H](n2cnc3c(NC4CCCC4)nc(Cl)nc32)[C@H](O)[C@@H]1O	nt	i	nt	3	6	-0.1	nt	-2.7	-2.6
O=C(C1=C(O)C(=O)N(CCCn2ccnc2)C1c1ccc(F)cc1)c1ccco1 (stereo not drawn)	-6	i	14%	4	9	-0.7	nt	-1.9	3.9
Cc1cc(/C=N/NC(N)=O)c(C)n1C1CCCCC1	52	i	18%	6	8	2.1	nt	14	1.0
Nc1nc2c(ncn2[C@@H]2O[C@H](CNCc3ccc(OCCCN4CCOCC4)cc3)[C@@H](O)[C@H]2O)c(=O)[nH]1	nt	i	nt	nt	nt	nt	nt	-7.1	2.8
CCOc1ccc(OCC(=O)OC(C)C(=O)NC2CCCC2)cc1 (stereo not drawn)	-3	i	nt	3	7	-0.3	0.67	-3.1	-1.7
c1ccn(CCc2ccncc2)c1	nt	nt	-7%	20	19	0.6	0.66	-0.4	-0.1
O=C(Cn1c(-c2cncs2)nc2ccccc21)NCc1ccccc1	-5	nt	-1%	nt	nt	nt	0.82	nt	1.1
CC(CC(=O)Nc1ccccc1C(F)(F)F)c1ccccc1 (stereo not drawn)	0	i	nt	nt	nt	nt	0.68	-11	1.0
COc1cccc(C(=O)Nc2cc(-c3cn4cccnc4n3)ccc2C)c1	11	i	-4%	0	9	-1.9	0.72	-6.8	3.5
CC(C)Sc1nc(N2CCOCC2)c2c(c1C#N)CC(C)(C)SC2	-4	i	17%	-20	-14	-1.8	0.67	4.7	-3.0
CC1(C)CC(=O)C(C=NCCN2CCN(C(=O)c3ccc(F)cc3)CC2)=C(O)C1	-11	nt	11%	nt	nt	nt	0.67	nt	5.3
CCNC(=O)[C@H]1[C@H](CO)[C@H]2Cn3c(ccc(C4=CCCCC4)c3=O)[C@H]2N1Cc1ccccc1F	nt	i	nt	-4	-17	4.1	nt	4.5	nt
C[C@@H]1CCCCO[C@H](CN(C)C(=O)Nc2ccc3c(c2)OCO3)[C@@H](C)CN([C@H](C)CO)C(=O)c2cc(NS(=O)(=O)c3ccc(Cl)cc3)ccc2O1	nt	i	nt	-1	-3	-2.6	nt	-6.9	nt
COc1ccccc1OCCCCCc1c(C)n[nH]c1C	-8	nt	-2%	nt	nt	nt	0.67	nt	-2.2
COc1ccc(NS(=O)(=O)c2ccc(C)c(NC(=O)c3ccc(C)c(S(=O)(=O)N4CCOCC4)c3)c2)cc1	-3	i	nt	-6	-2	-3.7	0.69	-5.1	0.1
CN(Cc1ccccn1)C(=O)C1CCC(=O)N(Cc2cccc(C(F)(F)F)c2)C1 (stereo not drawn)	-2	i	nt	9	14	5.4	0.67	-5.7	-1.1
O=c1[nH][nH]cc1C=Nc1cc(Cl)ccc1O	-11	i	5%	3	-1	0.9	0.62	-0.6	-0.1
O=C(CCCN1C(=O)C(c2ccccc2)Oc2cccnc21)NCCc1ccc(Cl)cc1 (stereo not drawn)	-13	i	nt	-6	-2	-2.8	0.66	?	1.2
CC1CCN(c2nc3c(cc2C#N)COC(C)(C)C3)CC1	9	i	nt	-40	-42	-16	0.63	-0.2	1.8
O=C1CCC/C1=c1\s/c(=C/c2cccnc2)c(=O)n1-c1ccccc1	nt	i	-8%	-2	7	-1.5	0.67	1.7	5.0
Cc1nnc(SCC(=O)N(C)C2CCCCC2)n1C	-5	i	-6%	4	9	-1.7	0.69	-1.7	-2.2
C[C@@H]1CC[C@H]2C(=O)N3[C@@H](CC[C@@H](C)[C@@H]3c3ccc(Br)cc3)C(=O)N2[C@H]1c1ccc(Br)cc1	-1	i	5%	7	-3	-0.6	nt	-9.6	-1.0

# (next part)
molecule	ALR H2O2 inh	FGF22 binding	Vif A3G	Ecoli rRNA inh	Ecoli rRNA inh OD600	Ecoli rRNA inh RFP	Ecoli growth	MLL AF4-AF9 inh	HNF4A DNA FP
C[C@H]1CN([C@@H](C)CO)C(=O)c2cc(NS(=O)(=O)c3ccc(F)cc3)ccc2O[C@H]1CN(C)CC1CC1	nt	i	nt	5	3	1.3	nt	0.3	nt
Cc1c2c(nc3c(C(=O)NC4CCCCC4C)cnn13)CCCC2 (stereo not drawn)	1	nt	-4%	nt	nt	nt	0.66	nt	nt
c1ccc2oc(-c3ccc(Nc4nc(N5CCOCC5)nc(N5CCOCC5)n4)cc3)nc2c1	nt	i	nt	3	8	8.1	nt	nt	-2.0
COc1ccc(NC(=O)Nc2ccc3c(c2)CCC3)c(OC)c1	-13	i	nt	22	25	0.8	0.68	-0.9	-0.1
